Assay outcomes deposited in PubChem by National Center for Advancing Translational Sciences (NCATS).
miR-21 FLuc: raises the signal of a miR-21 reporter. 340,000 tested, under 10 active. Potency, µM (doses to about 38.3 µM), without a hit: top-dose reporter change, positive = more light. AID 2288. HeLa miR-21 FLuc reporter, luciferase, 48 h; active = well fitted rising curve with a large enough effect; inconclusive = small, poorly fitted or top-dose-only effect; inactive = no such curve, though single readings can be large or run the other way;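 further: % of control where 0% means no effect; miR-21 action dims this reporter so a rising signal means less miR-21 action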
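Compounds were titrated across several concentrations (up to approximately 40 uM) and incubated 48 hours with HeLa miR-21-FLuc reporter cells (miR-21 target sequence downstream of FLuc, endogenous miR-21). Readout was firefly luciferase luminescence after lytic detection reagent.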
Rango dissoc inh: inhibitors of RanGTP-induced Rango-importin beta complex dissociation; O95149+P62826; Biochemical FRET Rango-importin beta, RanGTP-induced dissociation; Potency, µM (highest dose often 46.1 µM), inactives show at the highest dose activity change, negative = inhibition; 340,000 compounds, 0.071% hits; AID 540253; active means falling FRET ratio curve, often poorly fitted, with flat reads before Ran was added; inconclusive means other falling curves, or compound fluorescence or quenching; inactive means flat or rising ratio curve;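 further: potency means the concentration at half of the fitted maximal effect; % of control where 0% means no effect; nearly all actives have a fitted effect of over 45% in size; -100% = wells without RanGTP and RCC1; the record marks most hits as doubtful in a second field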
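Quantitative HTS using a FRET biosensor: 0.1 uM Rango, 0.25 uM importin beta, 0.6 uM Ran, 2 mM GTP, 0.2 uM RCC1 final, PBS with DTT, Tween-20 and BSA. Post-read taken 45 min after Ran addition.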
GLA inh pH 4.5: alpha-galactosidase A (human) inhibition, pH 4.5 | 230,000 tested, under 10 active | P06280 | activity change, negative = inhibition, % at 105 µM | purified enzyme, 4-MU-alpha-Gal fluorescence, pH 4.5; inconclusive = small, poorly fitted or top-dose-only inhibition, or a rising curve; inactive = flat fitted curve, though single readings scatter; no compound was filed as active;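 further: 0% = full activity with enzyme and -100% = basal without enzyme; dose as in the result columns while the protocol names 77 µM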
Rango-impB inh: Rango-importin beta binding inhibition. Q14974. Rango CFP/YFP FRET sensor + importin beta, 45 min. Potency, µM (doses to about 92.2 µM), for the others: at the highest dose inhibition of complex formation. 340,000 compounds, 0.031% hits; active = rising FRET ratio curve, often small or poorly fitted; inconclusive = mostly compound fluorescence or quenching in the first reads; inactive = flat curves in all reads;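 further: potency means the concentration at half of the fitted maximal effect; 0% = DMSO wells and 100% = buffer wells lacking importin beta; nearly all actives have a fitted effect of over 15% in size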
Target sequence (Q14974 whole entry, looked up): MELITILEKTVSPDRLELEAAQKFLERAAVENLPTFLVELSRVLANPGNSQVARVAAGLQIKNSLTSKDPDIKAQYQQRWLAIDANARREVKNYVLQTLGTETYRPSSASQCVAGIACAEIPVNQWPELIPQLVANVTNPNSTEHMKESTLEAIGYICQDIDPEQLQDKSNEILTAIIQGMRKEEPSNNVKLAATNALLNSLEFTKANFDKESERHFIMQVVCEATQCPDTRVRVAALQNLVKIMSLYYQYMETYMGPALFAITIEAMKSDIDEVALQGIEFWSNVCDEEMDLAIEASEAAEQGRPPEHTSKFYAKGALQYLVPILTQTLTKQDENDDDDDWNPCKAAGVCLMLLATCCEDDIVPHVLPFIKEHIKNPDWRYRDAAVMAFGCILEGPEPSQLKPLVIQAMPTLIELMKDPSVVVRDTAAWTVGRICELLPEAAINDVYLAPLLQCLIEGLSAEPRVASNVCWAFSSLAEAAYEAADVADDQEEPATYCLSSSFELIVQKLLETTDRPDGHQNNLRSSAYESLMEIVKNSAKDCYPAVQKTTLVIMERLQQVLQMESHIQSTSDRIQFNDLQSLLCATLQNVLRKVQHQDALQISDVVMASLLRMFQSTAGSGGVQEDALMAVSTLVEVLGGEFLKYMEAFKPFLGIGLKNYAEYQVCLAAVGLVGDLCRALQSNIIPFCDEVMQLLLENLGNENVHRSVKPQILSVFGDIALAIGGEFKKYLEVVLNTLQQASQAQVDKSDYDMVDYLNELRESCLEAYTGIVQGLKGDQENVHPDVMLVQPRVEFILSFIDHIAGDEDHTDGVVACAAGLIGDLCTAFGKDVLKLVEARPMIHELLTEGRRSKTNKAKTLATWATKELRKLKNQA
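FRET biosensor Rango (snurportin 1 IBB between N-terminal EYFP and C-terminal Cerulean), 50 nM in PBS/1 mM DTT/0.02% Tween-20/0.1% BSA, preincubated 5 min RT with compound; 0.125 microM importin beta added, 45 min RT, CFP/YFP FRET ratio read.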
Starred values were filed as active, the others as inactive.

For COc1ccc(N2C(=O)CCC2=O)cc1 the results were miR-21 FLuc 5%, Rango dissoc inh -1%, GLA inh pH 4.5 0 and Rango-impB inh -3.9%.
For CC(NC(=O)CCl)c1ccc(Cl)c(Cl)c1 (centres undefined) the results were miR-21 FLuc inconclusive, Rango dissoc inh 8%, GLA inh pH 4.5 -4 and Rango-impB inh 1.1%.
For O=C(Cc1ccc(Cl)c(Cl)c1)Nc1ccc(S(=O)(=O)Nc2ncccn2)cc1 the results were miR-21 FLuc -5%, Rango dissoc inh -3% and Rango-impB inh 2.1%.
O=C(CSc1nc2ccccc2c(=O)[nH]1)N1CCCCC1 was read as miR-21 FLuc -21%, Rango dissoc inh 1%, GLA inh pH 4.5 0 and Rango-impB inh 0.3%.
For N=C1SCC(=O)N1c1ncc(Cc2ccccc2Cl)s1 the results were miR-21 FLuc 1%, Rango dissoc inh 9%, GLA inh pH 4.5 1 and Rango-impB inh -2.1%.
Screening CC(=O)NC12CC3CC(C1)CC(C(=O)N1CCN(S(=O)(=O)c4ccccc4C#N)CC1)(C3)C2 returned Rango dissoc inh -10% and Rango-impB inh 1.4%.
For CC(C)(C)c1ccc(-c2nnc3sc(-c4ccccn4)nn23)cc1 the results were miR-21 FLuc -33%, Rango dissoc inh 20%, GLA inh pH 4.5 -2 and Rango-impB inh 0.9%.
COC(=O)c1ccc(Cn2cc(Cl)cn2)o1 was read as miR-21 FLuc 0%, Rango dissoc inh 0%, GLA inh pH 4.5 3 and Rango-impB inh -0.7%.
`Cc1ccc(OCc2nc3ccccc3n2C)cc1` gave miR-21 FLuc -43%, Rango dissoc inh inconclusive and Rango-impB inh 0.1%.
Cn1c(=S)[nH]c2[nH]c(=O)cnc2c1=O was read as miR-21 FLuc 4%, Rango dissoc inh 1%, GLA inh pH 4.5 -2 and Rango-impB inh 3.3%.
For O=C(COc1ccc(Br)cc1)N(CCO)CCO the results were miR-21 FLuc 0%, Rango dissoc inh -3%, GLA inh pH 4.5 6 and Rango-impB inh 4.7%.
CC(=O)Nc1ccc(NC(=O)CSC2=NS(=O)(=O)c3cc(Cl)ccc3N2)cc1 was read as Rango dissoc inh inconclusive and Rango-impB inh 0.3%.
For Cc1ccc(S(=O)(=O)N2CCOCC2)cc1C(=O)N1C(=O)c2cccc(N)c2C1=O the results were miR-21 FLuc -10%, Rango dissoc inh inconclusive, GLA inh pH 4.5 -13 and Rango-impB inh inconclusive.
N#Cc1ccc(OCc2nnc(-c3ccc([N+](=O)[O-])cc3)o2)cc1 was read as miR-21 FLuc -29%, Rango dissoc inh 15%, GLA inh pH 4.5 2 and Rango-impB inh -0.1%.
CCOC(=O)c1c(NC(=O)c2ccccc2Cl)sc2c1CCc1ccccc1-2 was read as miR-21 FLuc -4%, Rango dissoc inh 6%, GLA inh pH 4.5 0 and Rango-impB inh 1.1%.
For Cc1cc(NC(=O)c2ccc(-c3ccccc3[N+](=O)[O-])o2)no1 the results were Rango dissoc inh 12% and Rango-impB inh -1.8%.
Screening CCOC(=O)N1CCN(CC(O)COc2ccccc2C(C)(C)C)CC1 (centres undefined) returned miR-21 FLuc -3%, Rango dissoc inh 18%, GLA inh pH 4.5 -3 and Rango-impB inh -2.3%.
`O=C(O)CCc1nn2c3ccccc3n(CC(=O)O)c2nc1=O` gave miR-21 FLuc 2%, Rango dissoc inh 4%, GLA inh pH 4.5 0 and Rango-impB inh -0.2%.
CCOc1ccc(NC(=S)NC(=O)/C=C/c2ccco2)cc1 was read as miR-21 FLuc -1%, Rango dissoc inh 2% and Rango-impB inh -0.2%.
For CN(Cc1nc(-c2cccc(Cl)c2)no1)C1CCOCC1 the results were miR-21 FLuc -71%, Rango dissoc inh 4%, GLA inh pH 4.5 3 and Rango-impB inh -1.9%.
`O=C(O)CC(Cc1ccc(Cl)cc1)C(=O)NCC12CC3CC(CC(C3)C1)C2` (centres undefined) gave miR-21 FLuc -5%, Rango dissoc inh 2% and Rango-impB inh 0.6%.
`CN(Cc1nc2ccccc2c(=O)[nH]1)C(=O)c1cccc(NC(=O)c2cccs2)c1` gave Rango dissoc inh 6% and Rango-impB inh 0.7%.
`Cc1ccc(Cl)cc1NC(=O)COC(=O)c1ccc(CN2CCCC2=O)cc1` gave Rango dissoc inh 1% and Rango-impB inh 0.5%.
For COc1ccc(C2C=C(c3ccc(F)cc3)NC(=S)N2)cc1OC (centres undefined) the results were miR-21 FLuc 7%, Rango dissoc inh -11%, GLA inh pH 4.5 -1 and Rango-impB inh -0.2%.
Screening COC(=O)NCC(C)OC(=O)Nc1cccc(Cl)c1 (centres undefined) returned miR-21 FLuc -28%, Rango dissoc inh -5%, GLA inh pH 4.5 -1 and Rango-impB inh -2.6%.
O=C1C(=O)N(CCN2CCCCC2)c2ccccc21 was read as miR-21 FLuc -9%, Rango dissoc inh 9%, GLA inh pH 4.5 -3 and Rango-impB inh 0.0%.
For Cc1ccc(S(=O)(=O)c2nc(-c3ccccc3)oc2NCCCN2CCOCC2)cc1 the results were miR-21 FLuc -26%, Rango dissoc inh 2%, GLA inh pH 4.5 2 and Rango-impB inh 0.2%.
Screening O=C(CSc1nccc(=O)[nH]1)NC1CCCCCCC1 returned Rango dissoc inh 2% and Rango-impB inh -4.4%.
COC(=O)c1ccc(CSc2nc3c(cnn3-c3ccc(Cl)cc3)c(=O)[nH]2)o1 was read as miR-21 FLuc -3%, Rango dissoc inh -14%, GLA inh pH 4.5 -17 and Rango-impB inh -0.4%.
Screening Cc1c(Nc2nc3ccccc3nc2NS(=O)(=O)c2cccc(Cl)c2)c(=O)n(-c2ccccc2)n1C returned miR-21 FLuc -35%, Rango dissoc inh -24%, GLA inh pH 4.5 -13 and Rango-impB inh -4.9%.
Screening COc1ccc(-c2cccc(-c3cc(=O)oc4cc5c(cc34)OCO5)c2)cc1 returned Rango dissoc inh 0%, GLA inh pH 4.5 2 and Rango-impB inh 4.8%.
CCN(CCCNC(=O)C1CCC(=O)N1Cc1ccccc1Cl)c1cccc(C)c1 (centres undefined) was read as miR-21 FLuc 18%, Rango dissoc inh 7%, GLA inh pH 4.5 4 and Rango-impB inh 0.6%.
`COc1ccc(C(=O)COC(=O)c2ccc3ccccc3n2)cc1` gave miR-21 FLuc -2%, Rango dissoc inh -2%, GLA inh pH 4.5 4 and Rango-impB inh 4.0%.
`CCCCNC(=S)NC(=O)c1ccccc1Br` gave miR-21 FLuc -34%, Rango dissoc inh -5%, GLA inh pH 4.5 -3 and Rango-impB inh -0.7%.
For CN(Cc1cnccn1)C(=O)CC1C(=O)NCCN1Cc1cccc(Oc2ccccc2)c1 (centres undefined) the results were miR-21 FLuc -1%, Rango dissoc inh 1%, GLA inh pH 4.5 2 and Rango-impB inh -1.0%.
COc1ccc(Cn2c3nc4ccccc4nc3c3c(=O)n(Cc4ccco4)c(C)nc32)cc1 was read as miR-21 FLuc -1% and GLA inh pH 4.5 -10.
Screening Cn1nnnc1SCC(=O)Nc1ncc(C(F)(F)F)cc1Cl returned Rango dissoc inh -5% and Rango-impB inh -0.5%.
Screening C=CCn1c(=O)c2ccccc2n2c(SC(C)C(N)=O)nnc12 (centres undefined) returned miR-21 FLuc 1%, Rango dissoc inh 1% and Rango-impB inh 11%.
For CC1CN(C(=O)c2cc3cc(Cl)cc(Cl)c3oc2=O)CC(C)O1 (centres undefined) the results were miR-21 FLuc -4%, Rango dissoc inh inconclusive, GLA inh pH 4.5 -2 and Rango-impB inh -3.2%.
Screening O=C(Nc1ccc2oc(-c3ccncc3)nc2c1)c1ccc(F)cc1 returned miR-21 FLuc -7%, Rango dissoc inh 0%, GLA inh pH 4.5 3 and Rango-impB inh -3.8%.
Screening COc1ccc(S(=O)(=O)N2CCCCCC2)cc1C(=O)N(C)Cc1ccc(OC)c(OC)c1OC returned Rango dissoc inh -9% and Rango-impB inh -3.0%.
For CC1CC(C)CN(CCCNC(=O)Cn2cccc2C(=O)c2ccccc2)C1 (centres undefined) the results were miR-21 FLuc 3%, Rango dissoc inh 16% and Rango-impB inh 2.0%.
O=C(/C=C/c1ccco1)Nc1cccc(C(=O)Nc2ccccc2C(=O)O)c1 was read as miR-21 FLuc 2%, Rango dissoc inh -9%, GLA inh pH 4.5 9 and Rango-impB inh inconclusive.
Screening Cc1ccccc1C(=O)Nc1ccc(N2CCCCCC2)cc1 returned miR-21 FLuc -26%, Rango dissoc inh -13%, GLA inh pH 4.5 -15 and Rango-impB inh -3.8%.
COc1cc2c(cc1OC)C(c1ccc([N+](=O)[O-])cc1)NC(=O)C2 (centres undefined) was read as miR-21 FLuc -8%, Rango dissoc inh 1% and Rango-impB inh 0.5%.
For COc1cc2c(cc1OC)C(C)N(S(=O)(=O)c1ccc(C)cc1)CC2 (centres undefined) the results were miR-21 FLuc -11%, Rango dissoc inh -1% and Rango-impB inh 6.5%.
For CCc1cccc(NC(=O)C2CCN(S(=O)(=O)c3cccs3)CC2)c1 the results were miR-21 FLuc 15%, Rango dissoc inh 1%, GLA inh pH 4.5 0 and Rango-impB inh -0.2%.
Screening O=C(Nc1ccc(-c2nnn(CC(=O)N3CCN(C(=O)c4ccco4)CC3)n2)cc1)c1ccccc1F returned miR-21 FLuc -24% and GLA inh pH 4.5 -2.
`O=C(CN1CCN(c2ccccc2O)CC1)NCCCc1ccccc1` gave miR-21 FLuc -10%, Rango dissoc inh -11%, GLA inh pH 4.5 3 and Rango-impB inh 1.2%.
O=C(O)Cc1sc(-c2ccc(C(=O)O)cc2)nc1-c1ccccc1 was read as miR-21 FLuc -11%, Rango dissoc inh -5%, GLA inh pH 4.5 0 and Rango-impB inh 2.8%.
For Cc1cccc(C(=O)NCCC(=O)NCc2ccccc2Cl)c1 the results were Rango dissoc inh 12% and Rango-impB inh -5.1%.
`CN(Cc1nc2ccccc2c(=O)[nH]1)C(=O)COc1ccccc1Cc1ccccc1` gave Rango dissoc inh 7% and Rango-impB inh -4.1%.
`CCOc1ccc(S(=O)(=O)N2CCOCC2)cc1NC(=O)CN1C(=O)NC2(CCCC2)C1=O` gave Rango dissoc inh 0% and Rango-impB inh -0.1%.
Cc1cc2c(cc1C)C(c1ccccc1F)CC(=O)N2 (centres undefined) was read as miR-21 FLuc 6%, Rango dissoc inh -12% and Rango-impB inh 2.3%.
`O=C(c1cc(COc2ccc3ncccc3c2)on1)N1CCC[C@H]1CO` gave miR-21 FLuc 0%, Rango dissoc inh -7% and Rango-impB inh -0.2%.
For COc1nc(SCC(=O)Nc2ccccc2Cl)nc(N(C)C)n1 the results were miR-21 FLuc -30%, Rango dissoc inh -1%, GLA inh pH 4.5 -1 and Rango-impB inh -1.8%.
For N[C@@H](Cc1ccccc1)c1nnc(SC/C=C/c2ccccc2)o1 the results were miR-21 FLuc -2%, Rango dissoc inh 18%, GLA inh pH 4.5 -5 and Rango-impB inh -0.6%.
CN1C(=O)c2ccccc2N(C)C1c1cccs1 (centres undefined) was read as miR-21 FLuc -6%, Rango dissoc inh 4%, GLA inh pH 4.5 -1 and Rango-impB inh 0.2%.
CCc1ccc(NC(=O)c2ccc(-n3cncn3)c([N+](=O)[O-])c2)cc1 was read as Rango dissoc inh 9% and Rango-impB inh 0.6%.
Screening COc1ccc(N2CCN(C(=O)NCc3ccc(OC)c(OC)c3)CC2)cc1 returned miR-21 FLuc 0%, Rango dissoc inh -6% and Rango-impB inh 6.4%.
COc1cc(C(C(=O)NC(C)(C)C)N(Cc2ccc3c(c2)OCO3)C(=O)c2cnccn2)cc(OC)c1OC (centres undefined) was read as miR-21 FLuc -2%, Rango dissoc inh -11%, GLA inh pH 4.5 -9 and Rango-impB inh -0.3%.
For COc1ccc(-c2cc(-c3cc(OC)ccc3O)[nH]n2)cc1 the results were miR-21 FLuc -21%, Rango dissoc inh -4%, GLA inh pH 4.5 1 and Rango-impB inh 0.2%.

The list is partial, so the mix of outcomes need not match the whole.
